Screening data: PubChem BioAssay, several laboratories
Mtb betalactam: beta-lactam sensitization of Mtb H37Rv, H37Rv; M. tuberculosis H37Rv growth with meropenem, percent inhibition; hits of this screen are not shown here; inhibition, % at 25 µM; 330,000 tested, 0.27% active; AID 434955, 2010;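 active = about 74% or more and at least 40 points above the plate without the antibiotic, then above 30% in a dose series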;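 also: growth measured after seven days incubation then overnight dye step; 0% = bacteria only wells and 100% = bacteria with antibiotic; twin plates without the antibiotic show which effects depend on it; some results filed as inactive read as strong as hits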
Mtb growth: M. tuberculosis H37Rv growth inhibitors, H37Rv strain (AID 1626). 220,000 tested, 0.95% active. inhibition, % at 10 µM, or IC50 in µM where a hit was titrated. M. tuberculosis H37Rv growth inhibition; higher % means a stronger effect;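 active = confirmed in a dose series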;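 also: bacteria incubated seven days before Alamar blue readout; 0% = bacteria only wells and 100% = bacteria with antibiotic wells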
RecA splice inh: Mtb RecA intein splicing inhibitors, primary screen, biochemical, fluorescence, HTS; Protein RecA (Mycobacterium tuberculosis (strain ATCC 25618 / H37Rv)), P9WHJ3; cell-free RecA intein splicing; inhibition, %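 (about 9 µM by stock and volumes)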; 290,000 tested, 0.75% active; AID 2221, 2009; in the data active = inhibition above about 30%;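 also: 0% = vehicle wells and 100% = reference inhibitor control wells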
Target sequence (P9WHJ3 whole entry, looked up, canonical isoform): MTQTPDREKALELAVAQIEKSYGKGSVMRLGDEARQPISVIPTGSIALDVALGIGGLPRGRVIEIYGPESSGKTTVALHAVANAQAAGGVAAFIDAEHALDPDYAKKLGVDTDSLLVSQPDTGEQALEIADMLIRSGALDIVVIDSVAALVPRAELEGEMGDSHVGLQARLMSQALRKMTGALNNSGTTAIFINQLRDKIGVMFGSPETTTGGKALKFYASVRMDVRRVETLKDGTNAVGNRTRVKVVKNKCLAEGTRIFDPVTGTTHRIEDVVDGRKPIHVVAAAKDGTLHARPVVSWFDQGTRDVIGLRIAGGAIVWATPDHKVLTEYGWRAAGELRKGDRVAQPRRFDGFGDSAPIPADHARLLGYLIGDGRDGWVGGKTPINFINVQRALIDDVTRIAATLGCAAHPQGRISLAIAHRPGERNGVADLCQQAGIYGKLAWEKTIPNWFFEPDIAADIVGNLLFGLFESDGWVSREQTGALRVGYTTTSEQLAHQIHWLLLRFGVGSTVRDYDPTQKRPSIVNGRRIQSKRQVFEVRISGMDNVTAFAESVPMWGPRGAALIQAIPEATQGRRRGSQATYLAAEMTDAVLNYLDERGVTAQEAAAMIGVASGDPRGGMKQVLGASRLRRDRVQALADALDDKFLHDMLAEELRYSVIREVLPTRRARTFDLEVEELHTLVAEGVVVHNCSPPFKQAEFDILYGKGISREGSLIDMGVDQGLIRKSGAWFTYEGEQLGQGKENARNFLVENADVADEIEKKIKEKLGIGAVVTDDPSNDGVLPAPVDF
YopH PTP inh: YopH tyrosine phosphatase inhibitors, primary screen, biochemical, fluorescence Ex485/Em525; inhibition, %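 (about 10 µM by stock and volumes)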; 140,000 tested, 0.16% active; AID 898, 2007;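 active = inhibition of 50% or more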;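 also: controls were vehicle for no effect and minimum signal wells for full effect; inactives centre near -20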
Arbovirus inh: antivirals against arbovirus infection, primary screen, cell-based, full library, 10K replicate subset; arbovirus infection cell-based antiviral screen; inhibition, % at 10 µM; 200,000 tested, 0.37% active;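 active = inhibition from about 30%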;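 also: bluetongue infection of BSR cells; cell survival read as ATP light after 72 h; 0% = infected wells without compound and 100% = uninfected wells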
Arbovirus inh repeat: further read-out of Arbovirus inh, marked with its call; inhibition, %; measured here: 10K subset replicate screen; many hits read low in the repeat;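 first of two repeat runs on a subset; 0% = infected and 100% = uninfected wells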
* = called active by the depositor; x = no result given. An excerpt (hit frequency here may not be typical).

SMILES | Mtb betalactam | Mtb growth | RecA splice inh | YopH PTP inh | Arbovirus inh | others
CS(=O)(=O)Nc1ccc(S(=O)(=O)N2CCCCCC2)cc1 | -3 | x | -1.7 | x | x
C=CCn1c(SCc2nc3cc(C(F)(F)F)ccc3c(=O)[nH]2)nc2sc(CC)cc2c1=O | 3 | 1% | -2.0 | -19 | 8
CCNC(=O)/C=C1\NC(C)(C)Cc2c1ccc1ccccc21 | -1 | -4% | -49 | -16 | -8
CNC(=S)N1CCN=C1Nc1nc(C)cc(C)n1 | 0 | 8% | -1.3 | x | 1
N/C(Cc1cccc2ccccc12)=N\O | 15 | -7% | 13 | x | x
CCOC(=O)c1sc(C)c2c(=O)n(CC)nnc12 | -7 | -10% | 1.9 | -9 | 10
CCOC(=O)c1oc2ccc(CNC(C)(C)C)c(Cl)c2c1C | -1 | 6% | -1.4 | 9 | -24
Cc1nn(Cc2ccc(Cl)cc2)c(C)c1NC(=O)CSc1nc2c(c(C(F)(F)F)n1)CCc1ccccc1-2 | 90 | 17% | 0.3 | -39 | -7
CCOC(=O)c1oc2ccc(/C=N/O)c(Cl)c2c1C | -7 | 2% | x | x | -20
CC(C)Cc1nnc(NC(=O)c2cc3c(s2)CCC3)s1 | -2 | 3% | -3.7 | x | x
CCn1c(SCC(=O)Nc2ccc3c(c2)OCCO3)nnc1C(C)C | 2 | x | 0.3 | x | x
CC(=C\C(=O)O)/C(=C/c1ccco1)C(=O)O | -6 | -1% | -2.6 | x | x
Cc1ccc(S(=O)(=O)Nc2cc(-c3nn(C)c(=O)c4ccccc34)ccc2N2CCOCC2)cc1 | x | 1% | -1.2 | -6 | -26
CC(C)(C)NC(=O)CN(C(=O)CS(=O)CC(=O)Nc1ccc(F)cc1)c1ccc(Cl)cc1 (stereo unspecified) | -11 | 2% | 1.7 | 24 | -1
CCCCn1c(N)c(N(CC(C)C)C(=O)c2c(CC)noc2C)c(=O)[nH]c1=O | 6 | x | 2.6 | x | x
CS(=O)(=O)Nc1ccc(C(=O)N2CCN(c3ccccc3F)CC2)cc1 | -6 | -4% | -1.0 | -16 | 2
Cc1ccc(N=C2NC(=O)/C(=C/c3cccn3C)S2)cc1C | 13 | 0% | 2.6 | x | x
CSc1nc(-c2ccc(F)cc2)cc(=O)[nH]1 | 4 | 2% | -1.5 | 0 | 2
COc1cccc2sc(NNC(=O)c3nc4ccccc4s3)nc12 | 2 | x | -5.4 | -29 | -26
NS(=O)(=O)c1ccc(CCNCc2cc(Br)ccc2OCc2ccccc2F)cc1 | 22 | 8% | 3.4 | x | -13
CC(=O)CSc1ncnc2c1cnn2-c1ccccc1 | 2 | -1% | 2.2 | x | 7
CCCCNC(=S)NNC(=O)c1c(C)nc2ccccn12 | 2 | -5% | -1.9 | x | 7
Cc1cc(NC(=O)Cn2nnc(-c3ccccc3NC(=O)c3ccccc3F)n2)no1 | 1 | x | 3.6 | x | x
Cc1ccc(/C=N/NC(=O)C(NC(=O)c2ccccc2)c2n[nH]c(=O)c3ccccc23)cc1 (stereo unspecified) | 15 | 0% | -3.2 | -29 | -10
CCOC(=O)Nc1sc(NS(=O)(=O)c2ccccc2)nc1C | -1 | -9% | -0.8 | 8 | 8 | Arbovirus inh repeat=1

The results go on.
SMILES | Mtb betalactam | Mtb growth | RecA splice inh | YopH PTP inh | Arbovirus inh | others
Cc1cc(Oc2ccccc2)nc(OCC#N)n1 | -1 | -7% | -1.4 | -28 | 4
N#Cc1c(N)nc(N)nc1Nc1ccc(Br)cc1 | -2 | 3% | -0.7 | x | x
O=C(O)CCc1ccc(-c2ccc(Br)cc2)n1-c1cccc(O)c1 | 27 | x | 6.4 | x | x
COc1ccc(C(c2c(O)nc(SC)n(C)c2=O)c2c(O)nc(SC)n(C)c2=O)cc1O | 9 | 8% | -2.1 | -12 | 2
CCCCCn1c(N(C)Cc2ccccc2)nc2c1c(=O)[nH]c(=O)n2C | -1 | 0% | 2.6 | -53 | 11 | Arbovirus inh repeat=-6
Cc1ccc(-c2nc(NC(=O)c3nn(C)cc3[N+](=O)[O-])sc2C)cc1C | -2 | x | 0.8 | -3 | -42
CC1CN=C(NCc2ccncc2)S1 (stereo unspecified) | 5 | 6% | 0.6 | -27 | 5
O=C1c2ccccc2NC(c2ccccn2)N1c1ccc(Cl)cc1 (stereo unspecified) | -8 | -5% | -5.9 | -10 | 0
CCCCNc1nc2ccccc2n1CC(=O)N1CCc2ccccc2C1 | -14 | 4% | -0.4 | -24 | -2
CCOC(=O)Nc1ccc2c(c1)N(C(=O)N1CCN(C)CC1)c1ccccc1CC2 | -2 | -11% | 1.1 | x | -12
O=C(NCc1ccco1)c1ccc2c(=O)n(CCC3=CCCCC3)c(=O)[nH]c2c1 | -4 | -2% | -1.3 | -19 | -2
O=C(NC1CCN(C(=O)Nc2ccc(F)cc2)CC1)c1ccccc1F | -3 | x | 0.0 | x | x
CC(=O)Nc1cccc(/C(C)=N/Nc2nc3ccccc3s2)c1 | 14 | 9% | -2.9 | x | -7
Cc1ccnc(NC(=O)CCC(=O)N(CC(=O)NCCc2ccccc2)Cc2ccco2)c1 | x | -1% | x | -42 | 7
O=C(NNc1ccccn1)C(=O)NNS(=O)(=O)c1ccc(F)cc1 | 0 | -8% | -5.8 | x | -11
Cc1noc(C)c1S(=O)(=O)NCCCN1CCN(Cc2ccccc2)CC1 | 3 | x | -2.0 | -15 | 12
O=C1NCCCCC1NS(=O)(=O)c1ccc(Cl)cc1 (stereo unspecified) | 2 | x | -2.5 | x | x
COc1ccc(Nc2nnc(Cc3ccncc3)c3ccccc23)c(OC)c1 | -2 | x | 0.0 | x | x
Cc1oc(/N=C/c2ccccc2)c(C#N)c1C | -2 | x | 0.5 | x | x
CCOC(=O)c1ccc(N2C(=O)CC(Sc3nc(C)cc(C)n3)C2=O)cc1 (stereo unspecified) | -7 | x | 2.6 | x | x
O=C(NCCCn1ccnc1)c1cc(C(=O)C2CCCCC2)c[nH]1 | 1 | 1% | 1.0 | x | -3
COc1ccc(CCNC(=O)COc2coc(CN3c4ccccc4CC3C)cc2=O)cc1OC (stereo unspecified) | 7 | x | -1.9 | x | x
O=c1[nH]c(SCc2ccccc2F)nc2ccccc12 | -10 | -1% | -0.9 | x | 1
CCCCNC(=O)CNC(=S)N(Cc1ccccc1F)C1CCCCC1 | 4 | 6% | 0.9 | x | -3
C[C@H](NC(=O)c1cc2cc(Cl)ccc2n1C)C(=O)N[C@@H](C(=O)O)c1ccccc1 | 1 | x | -0.6 | x | x

Of the compounds above, these contain a tert-butyl group.
SMILES | Mtb betalactam | Mtb growth | RecA splice inh | YopH PTP inh | Arbovirus inh | others
CCOC(=O)c1oc2ccc(CNC(C)(C)C)c(Cl)c2c1C | -1 | 6% | -1.4 | 9 | -24
CC(C)(C)NC(=O)CN(C(=O)CS(=O)CC(=O)Nc1ccc(F)cc1)c1ccc(Cl)cc1 (stereo unspecified) | -11 | 2% | 1.7 | 24 | -1

4 structures already listed, sorted by length of the SMILES, low to high.
SMILES | Mtb betalactam | Mtb growth | RecA splice inh | YopH PTP inh | Arbovirus inh | others
CCOC(=O)c1oc2ccc(/C=N/O)c(Cl)c2c1C | -7 | 2% | x | x | -20
CCCCNc1nc2ccccc2n1CC(=O)N1CCc2ccccc2C1 | -14 | 4% | -0.4 | -24 | -2
CCn1c(SCC(=O)Nc2ccc3c(c2)OCCO3)nnc1C(C)C | 2 | x | 0.3 | x | x
NS(=O)(=O)c1ccc(CCNCc2cc(Br)ccc2OCc2ccccc2F)cc1 | 22 | 8% | 3.4 | x | -13

Continued.
SMILES | Mtb betalactam | Mtb growth | RecA splice inh | YopH PTP inh | Arbovirus inh | others
CCN(CC(=O)Nc1ccc2c(c1)OCCO2)C(=O)c1ccc(C(F)(F)F)cc1 | -6 | x | -0.8 | x | x
Cc1sc(NC(=O)C2CC(Cl)=CCC2C(=O)O)c(C#N)c1C (stereo unspecified) | -10 | -16% | 0.7 | x | 9
Cc1ccc(S(=O)(=O)N2CCN(C(=O)COC(=O)CCOc3ccc(C(C)(C)C)cc3)CC2)cc1 | -5 | x | -2.3 | x | x
COc1ccc(-c2nc3ccccc3c(=O)n2-c2ccc(OC)cc2)cc1 | -5 | 8% | 14 | x | -5
CC1CN(c2ccc([N+](=O)[O-])cc2C#N)CC(C)O1 (stereo unspecified) | -3 | -3% | 1.7 | x | 13
Oc1ccccc1Oc1ncc(Br)c(Cl)n1 | 7 | x | -5.5 | x | x
CCOc1ccc(Cc2nnc(SCC(=O)Nc3ccccc3)n(N)c2=O)cc1 | -13 | x | -1.5 | x | x
O=C(Nc1ccc(Br)cc1F)c1ccc2nsnc2c1 | 11 | x | -0.6 | x | x
COC(c1ccccc1)c1nnc(CCC(=O)N2CCN(CCOc3ccccc3)CC2)o1 (stereo unspecified) | 0 | -11% | 0.6 | x | 0
COCCn1c(C23CC4CC(CC(C4)C2)C3)n[nH]c1=S | -1 | 7% | 1.3 | -29 | 4
COc1ccc(CNC(=O)CCN2C(=O)[C@@H]3Cc4ccccc4CN3C2=O)cc1 | -3 | x | 3.5 | x | x
O=C(NCc1ccccc1)c1csc2c1CCCCC2 | 8 | 8% | 6.9 | -1 | 0
CC(OC(=O)c1ccc(Cl)nc1)C(=O)NC(C)(C)C (stereo unspecified) | 4 | 4% | 2.3 | x | 1
CCOC(=O)N1CCN(C(=O)c2ccc(N3C(=O)c4ccccc4C3=O)cc2)CC1 | -1 | -1% | -0.6 | -27 | 4 | Arbovirus inh repeat=4
CS(=O)(=O)c1ccc(Cl)c(NC(=O)COC(=O)CCN=C2NS(=O)(=O)c3ccccc32)c1 | -8 | x | -4.5 | x | x
OCC1CCCN(c2ncnc3scc(-c4ccccc4)c23)C1 (stereo unspecified) | 4 | 5% | 1.5 | x | 13
CC(C)CC(NC(N)=O)C(=O)OCC(=O)Nc1ccc(SC(F)F)cc1 (stereo unspecified) | -1 | -4% | -1.3 | x | 4
CCCCn1c(N)c(N(CCOC)C(=O)c2cccc(S(=O)(=O)N(C)c3ccc(C)cc3)c2)c(=O)[nH]c1=O | -1 | x | 0.9 | x | x
Cc1ccccc1-c1nnc(-c2ccc(Cl)cc2)o1 | 9 | 6% | -2.9 | 11 | 4 | Arbovirus inh repeat=-4
CCN(CC)C(=O)C(=O)c1ccn(-c2c(C)csc2C(=O)OC)c1 | -2 | 10% | 1.5 | x | 8
CC1CCCN(C2(O)C(=O)Nc3ccc(Cl)cc32)C1 (stereo unspecified) | -1 | x | 4.0 | x | x
C=CCn1c(SCC(=O)Nc2ccc(Br)cc2)nc(O)c(CC)c1=O | 8 | x | 1.9 | x | x
CN(C)C(CNC(=O)NC1CCCCC1)c1cccnc1 (stereo unspecified) | 0 | -14% | x | -34 | 9
COc1ccccc1C(=O)N/C(=C\c1ccccc1)C(=O)NC(C)C(=O)O (stereo unspecified) | -1 | -5% | 8.2 | x | -3
COc1ccc2c(c1OC)C(=O)OC2Nc1ccccc1S(=O)(=O)C(F)F (stereo unspecified) | -8 | -4% | -5.0 | -22 | -7

Continuation.
SMILES | Mtb betalactam | Mtb growth | RecA splice inh | YopH PTP inh | Arbovirus inh | others
CCc1nn(CC(=O)NCCCc2ccccc2)c(=O)c2cc3cc(F)ccc3n12 | 8 | x | 1.0 | x | x
O=C(CCC1CCCN(C(=O)CCC(F)(F)F)C1)NCc1ccc(F)c(F)c1 (stereo unspecified) | 4 | -7% | -3.5 | x | -1
Cc1cccc(NC(=O)C2(c3ccccc3)CCOCC2)c1 | -7 | -6% | -0.3 | x | 0
CCOC(=O)C1(Cc2cccc(Cl)c2)CCCN(CCO)C1 (stereo unspecified) | -3 | 2% | 0.4 | x | 0
C=CCSc1nnc(Cn2c(=O)sc3ccccc32)n1C | 5 | 4% | -1.0 | -19 | 2 | Arbovirus inh repeat=1
Cc1cc(C)c([N+](=O)[O-])cc1-c1ccc(/C=N/NC(=O)c2nonc2N)o1 | 7 | -7% | -8.3 | -9 | -9
Cc1nc2nc(-c3cccnc3)[nH]n2c(=O)c1Cc1ccccc1 | -26 | -8% | 0.8 | -45 | 7
Cc1ccc(C2N3CC4([N+](=O)[O-])CN2CC([N+](=O)[O-])(C3)C4(C)C)cc1 (stereo unspecified) | -5 | -1% | -2.8 | -11 | 8
COc1cc(Cl)ccc1NC(=S)N(CCN(C)C)C(C)c1ccncc1 (stereo unspecified) | -6 | -1% | -0.6 | x | x
O=c1cc(O)c(-c2ccccc2)c(Cl)[nH]1 | -1 | 8% | -2.9 | -32 | 9
COC(=O)CSc1nc(-c2ccccc2)cc(-c2ccco2)c1C#N | -14 | -6% | 4.6 | 1 | 1
CCCOc1ccc(NC(=O)CC2C(=O)N(C)C(=S)N2Cc2ccc3c(c2)OCO3)cc1 (stereo unspecified) | -5 | 4% | 5.7 | -27 | -24
CCN1CCc2c(OCc3ccccc3)cccc2C1=O | -12 | 12% | 2.1 | x | -6
